StopGo RLuc: Primary qHTS Assay for Foot and Mouth Disease Virus Antivirals against NCGC Sytravon and CBC Compound Libraries: Renilla Luciferase Signal; HEK cells with a luciferase reporter of 2A StopGo recoding; Potency, µM (doses to about 57.5 µM), for the others: at the highest dose signal change, negative = less light; actives 0.32% (n = 120,000); AID 1745857, 2022; active means well fitted falling curve with a large enough effect; inconclusive means small, poorly fitted or top-dose-only effect; inactive means no such curve, though single readings can be large or run the other way; also: nearly all actives have a fitted effect of over 55% in size; overnight with compound
2A firefly: Primary qHTS Assay for Foot and Mouth Disease Virus Antivirals against NCGC Sytravon and CBC Compound Libraries: Firefly Luciferase Signal; HEK cells with a luciferase reporter of 2A StopGo recoding; Potency, µM (titrated, usually from 57.5 µM), inactives show top-dose signal change, negative = less light; actives 0.23% (n = 120,000); AID 1745856, 2022; active = well fitted falling curve with a large enough effect; inconclusive = small, poorly fitted or top-dose-only effect; inactive = no such curve, though single readings can be large or run the other way; also: nearly all actives have a fitted effect of over 60% in size; overnight with compound
The depositor's hits bear a star; ? = inconclusive; & = joins results of further samples; [ ] = dose if it differs, or a comment. % is scaled to controls: 0 for no effect and ±100 for the full control effect; potency is read from the fitted curve at half-maximal effect.

SMILES	StopGo RLuc	2A firefly
COc1ccc(N(C(=O)c2cc(OC)c(OC)c(OC)c2)S(=O)(=O)c2ccc(C)cc2)cc1	49%[activator]	0%
COc1cc(C2C3=C(CCCC3=O)OC3=C2C(=O)CCC3)ccc1OCc1ccc(C(=O)O)cc1	16%	16%
CSc1ccc(CCNC(=O)C(CCS(C)(=O)=O)N2Cc3ccccc3C2=O)cc1 (configuration not stated)	-8%	-18%
O=C(Nc1ccc(F)cc1)N1CCN(c2ccccc2F)CC1	24%	43%[activator]
O=C1CN(C(=O)C2CCCCC2)C(c2ccccc2)c2cc(F)ccc2N1 (configuration not stated)	84%[activator]	50%[activator]
CCN(CCCNC(=O)c1cc2cc3ccc(OC)cc3nc2s1)c1ccccc1	61%[activator]	119%[activator]
O=C(NCCCN1CCCCCC1)C1CCC1	-19%	17%
CC(Sc1nnc(-c2c[nH]c3ccccc23)o1)C(=O)NC(=O)NC1CCCCC1 (configuration not stated)	90%[activator]	24%
CCCNc1c(NS(=O)(=O)c2ccccc2Cl)c(=O)oc2ccccc12	27%	-8%
CCC(C)c1ccc(Nc2nc(-c3ccc(S(=O)(=O)N4CCCC4)cc3)cs2)cc1 (configuration not stated)	4%	5%
O=C1CN=C(c2ccccc2)c2cc([N+](=O)[O-])ccc2N1	-2%	4%
CC(C)C(NS(C)(=O)=O)C(=O)NCc1cc(F)cc(F)c1 (configuration not stated)	-5%	-7%
Cc1ccc(C(=O)Nc2cc(-c3nn(C)c(=O)c4ccccc34)ccc2N2CCOCC2)cc1	-1%	6%
CCOc1ccccc1NC(=O)Cn1c(=O)n(Cc2ccc(C(=O)NCCCOC)cc2)c(=O)c2ccccc21	0%	-22%
CC(C)N(Cc1cnn(C)c1)C(=O)C1CC(=O)N(c2ccccc2)C1 (configuration not stated)	-7%	-8%
C[C@H](CN1CCOCC1)C(C(=O)N1CCCC1)(c1ccccc1)c1ccccc1	-16%[129 µM]	0%[27 µM]
CCOc1ccccc1NC(=O)CSc1nc2cc(OC)c(OC)cc2c2nc(CCn3c(C)nc4ccccc43)nn12	-10%	-5%
CC(=O)c1cccc(S(=O)(=O)NCCC(=O)NC(C)C)c1	0%	3%
CCN(CCO)c1nc2sc(C)c(C)c2c2nc(-c3ccccc3)nn12	-10%	1%
CCC1CCCCN1C(=O)Cn1c(=O)n(-c2ccccc2C(F)(F)F)c(=O)c2c(C)c(C(=O)N(C)C)sc21 (configuration not stated)	-12%	-27%
O=S(=O)(Nc1ccc(-c2ccc(N3CCCC3)nn2)cc1)c1ccc(C(F)(F)F)cc1	17%	?
CN(CC(=O)NC(=O)NC1CCCC1)c1ccccc1	17%	5%
O=C(N/N=C/c1ccc([N+](=O)[O-])o1)c1ccc(NC(=O)C2CCCCC2)cc1	-8%	17%
O=C(NCc1ccccc1F)c1ccc(CN2CC(=O)N3CCCCC3C2=O)cc1 (configuration not stated)	22%	6%
CS(=O)(=O)c1ccc(F)c(NCc2ccccc2Cl)c1	6%	-5%
SMILES	StopGo RLuc	2A firefly
COc1ccccc1NS(=O)(=O)c1ccc2oc(SC(C)C(=O)N3CCCC3)nc2c1 (configuration not stated)	97%[activator]	-11%
COc1ccc(-c2c3c(=O)n(C)c(=O)n(C)c3c3c(C)nc4ccccc4n23)cc1	-9%	-22%
Cc1ccc(NC(=O)N2CCN(c3cccc(Cl)c3)CC2)cc1C	-5%	31%
Cc1cc(C)cc(N2C(=O)CCSC23C(=O)N(Cc2ccccc2)c2ccccc23)c1 (configuration not stated)	94%[activator]	-10%
O=C(NCc1ccccc1)c1cc2ccccc2o1	37%[activator]	38%[activator]
Cc1nc2nc(N(Cc3ccc(Cl)cc3)C(=O)c3ccco3)[nH]n2c(=O)c1Cc1ccccc1	18%	15%
COc1ccc(NC(=O)c2oc3ccccc3c2NC(=O)c2cc3ccccc3o2)cc1	7%	47%[activator]
O=S(=O)(c1ccc(F)c(F)c1)N1CCN(Cc2ccc3c(c2)CCO3)CC1	9%	6%
CCCCOc1ccc(CNC(=O)c2ncoc2-c2cccs2)cc1	12%	35%[activator]
COc1cc(NC(=O)CSc2nc(-c3cccs3)cc(C(F)(F)F)n2)cc(OC)c1OC	-1%	-12%
Cc1nc2c(C(=O)NCc3ccccc3Cl)cnn2c(C)c1Cc1c(F)cccc1Cl	17%	-12%
O=C(Cn1ncc2c([nH]c3ccccc32)c1=O)NCC1CCN(Cc2ccc(F)cc2)CC1	-12%	-11%
Cc1ncsc1C(=O)N(Cc1ccccc1)C1CC1	9%	10%
Cc1csc2nc(COC(=O)COc3ccccc3F)cc(=O)n12	-2%	4%
CC(=O)Nc1ccc(OCc2cc(=O)n3ccsc3n2)cc1	4%	95%[activator]
O=C(O)c1ccc(-c2cc3ccccc3oc2=O)cc1	15%	74%[activator]
Cc1cccc(S(=O)(=O)N2CCC(n3c(CC(C)C)nc4cccnc43)CC2)c1	16%	-8%
Cc1ccc2nc(Cl)c3cc(C(=O)N4CCCCC4C)sc3c2c1 (configuration not stated)	-6%	-6%
CCCCCCOc1ccc(CNCCCOCC)cc1	-30%	-16%
COc1ccc(-c2cnc(C)o2)cc1S(=O)(=O)Nc1cccc(Br)c1	-74%	11%
CC1CC1C(=O)NCCSCc1cccs1 (configuration not stated)	18%	38%[activator]
O=C(Nc1cccc(F)c1)c1cccn2c(-c3ccc(F)cc3)nnc12	9%	44%[activator]
Cc1ccc(C(C)C)c(OCCCn2c(=O)oc3ccccc32)c1	3%	-6%
Cc1cc(OCC(=O)NC2CC(C)(C)NC(C)(C)C2)c2c(C)c(C)c(=O)oc2c1	-5%	-3%
CCOc1ccc(Oc2coc3cc(O)ccc3c2=O)cc1	31%	137%[activator]
SMILES	StopGo RLuc	2A firefly
CCN1CCN(CCNC(=O)C2CCCN(c3nc4cccnc4s3)C2)CC1 (configuration not stated)	-1%	1%
CCN[C@H](C)Cc1cccc(C(F)(F)F)c1	-5%[114 µM]	14%[22.9 µM]
CC(C)N(CCNC(=O)c1n[nH]c(=O)c2ccccc12)C(C)C	5%	19%
c1ccc(Oc2ncnc3c2cnn3-c2ccccc2)cc1	9%	173%[activator]
Cc1ccc(N2CCN(C(=O)c3ccc4c(Cl)c5c(nc4c3)CCCC5)CC2)c(C)c1	-5%	-11%
O=C(CSc1nc2ccccc2nc1Cc1ccccc1)N1CCCCC1	233%[activator]	?
Cc1cccc(NC(=O)COC(=O)c2ccc3ccccc3n2)c1C	?	-14%
COc1ccc(CN2CCN(CC(=O)Nc3ccccc3C(=O)NC3CCCC3)CC2)cc1	0%	-2%
COc1cc(/C=C/C(N)=O)cc(OC)c1OC	10%	-5%[11.5 µM]
COc1cc(O)ccc1-c1nc2cc(C)ccn2c1Nc1ccccc1C	-1%	-1%
COC(=O)c1ccc(CNC(=O)c2cc(-c3ccc(C)cc3)nc3ccccc23)cc1	16%	0%
CCCc1cc(=O)n2nc(N(C)CC(=O)Nc3cc(Cl)ccc3C)sc2n1	-13%	-6%
CSc1ccc(/C=N/N=C(c2ccccc2)c2ccccc2)cc1	-13%	0%
O=C(CCCOc1ccccc1)OCC(=O)c1ccc2c(c1)OCO2	-7%[1.06 µM]	4%
CCOc1ccccc1CNC(=O)c1ccc2nc(CCc3ccccc3)oc2c1	75%[activator]	57%[activator]
CCCC(=O)Nc1ccc(C(C)CC)cc1 (configuration not stated)	15%	0%
Cc1cc(C(=O)NCc2ccccn2)sc1C	10%	75%[activator]
Cc1nnc(NC(=O)c2ccc3c(ccn3C)c2)s1	-13%	12%
CC(NC(=O)C1CCN(C(=O)N2CCOc3ccc(Cl)cc32)CC1)c1ccccc1 (configuration not stated)	77%[activator]	1%
O=C(Nc1ccc(N2CCN(c3ccc(F)cc3)CC2)c(C(=O)O)c1)c1cccs1	-3%	-5%
CC(C)NC(=O)c1cc(-c2cccc(OC(C)C)c2)nc2ccccc12	9%	20%
Cc1cc(C)c(OCC(=O)N(Cc2ccc(N(C)C)cc2)Cc2ccco2)c(C)c1	-12%	-15%
CCOC(=O)c1ccc(NC(=O)CSc2ccc(-c3sc(C)nc3C)nn2)cc1	-2%	-14%
CC#CC[N+](C)(CC#CC)Cc1ccccc1	4%	25%
CCOc1ccc(N2C(=O)c3ccccc3NC23CCCCC3)cc1	2%	122%[activator]
SMILES	StopGo RLuc	2A firefly
Cc1ccc(Nc2nc(N)nc(CSc3nc4ccccc4s3)n2)cc1	18%	62%[activator]
Cc1cc(F)ccc1-n1nnc(C(N)=O)c1C	-4%	-4%
O=C(c1ccc2c(c1)N(Cc1ccccc1)C(=O)c1ccccc1S2(=O)=O)N1CCc2ccccc21	0%	-4%
CC(C)CCn1c(C2CC(=O)N(Cc3ccc(F)cc3)C2)nc2ccccc21 (configuration not stated)	18µM*	18µM*
Cc1ccc(CSC2=Nc3ccccc3C3=NC(CC(=O)NCc4ccc5c(c4)OCO5)C(=O)N23)cc1 (configuration not stated)	24%	69%[activator]
Cc1oc(-c2cccs2)nc1CC(=O)N(C)Cc1ccccc1	40%[activator]	1%
Cc1ccc2c(=O)c(C(=O)c3cccc(Cl)c3)cn(CC(=O)Nc3ccc4c(c3)OCCO4)c2n1	12%	-18%
CC(=O)C(C(C)=O)C(NC(=O)c1ccc(C)cc1)(C(F)(F)F)C(F)(F)F	3%	-10%
CCN(c1ccccc1)c1nnc(NC(=O)Nc2cccc(Cl)c2C)s1	0%	-18%
NS(=O)(=O)c1ccc(NC(=O)CN2CCN(c3ccc(F)cc3)CC2)cc1	-5%	6%
CC(C)(C)NC(=O)c1cnn(-c2ccccc2)c1C1CCN(C(=O)OC(C)(C)C)CC1	-9%	-12%
O=C(CCc1nc2ccccc2[nH]1)NC1CCSc2c(F)cccc21 (configuration not stated)	-13%[1.06 µM]	5%
Cc1oc2ncn(CC(C)C)c(=O)c2c1C(=O)NCc1cccc(Cl)c1	55%[activator]	-17%
COc1cccc(-c2nc3c(c(SCC(=O)Nc4cc(C)ccc4C)n2)Cc2c(CO)cnc(C)c2O3)c1	-5%	-7%
CC(=O)c1ccc(S(=O)(=O)N2CCC(C(=O)Nc3nc4c(s3)CCC4)CC2)cc1	-13%	-14%
Cc1ccc(C)c(-c2nc3ccccc3c(C(=O)O)c2C)c1	-1%	28%
CCSc1nn(CC(=O)Nc2cccc(CC)c2)c(N)c1S(=O)(=O)c1ccccc1	?	?
O=C(Cc1cccs1)Nc1ccc2c(c1)OCCCO2	28%	168%[activator]
COc1cccc(CNC(=O)CN2C(=O)CSc3c2c(C)nn3-c2ccccc2)c1	300%[activator]	-13%
Cn1c(=O)c2nc(SCC(=O)Nc3ccc(F)cc3)n(C)c2n(C)c1=O	2%	-2%
CCCCNC(=O)c1cnc2sc(N3CCCCCC3)nn2c1=O	-7%	9%
COc1ccc(Cn2c(CO)cnc2SCC(=O)NCc2ccc(F)cc2)cc1	19%	17%
CCOC(=O)c1cc(C)n(CC2CCC(C(=O)Nc3ccc(OCC)cc3)CC2)c1C (configuration not stated)	-8%	4%
Cc1nn2c(=O)cc(COC(=O)Cc3ccccc3)nc2s1	-2%	-11%
CCONC(=O)NC(c1ccc(OC)cc1)C(C)C (configuration not stated)	8%	-3%
SMILES	StopGo RLuc	2A firefly
COc1ccc(CNC(=O)CSc2nc3ccsc3c(=O)n2Cc2ccccc2Cl)cc1	-16%	-21%
Cc1ccc(CNCCN2CCCC2)cc1	-8%	-5%
CC1CCN(Cc2oc(CO)cc(=O)c2O)CC1	-1%	-2%
CCn1c(C)cc(C(=O)CSc2nnc(CN(c3ccccc3)S(C)(=O)=O)n2C)c1C	-13%	-7%
COC(=O)c1ccc(CNC(=O)c2cccc(I)c2)cc1	-3%[1.06 µM]	-2%
COc1cccc(CN2CCCN(CC(=O)Nc3ccc4c(c3)OCCO4)S2(=O)=O)c1	-6%	-25%
CCn1nc(C(=O)NCc2cc3ccccc3[nH]2)c2ccccc2c1=O	48%[activator]	13%
Cc1ccccc1Nc1nnc(-c2ccc(C)c(S(=O)(=O)N3CCCCC3)c2)c2ccccc12	-5%	-11%
CCCCCOc1ccc(/C=C2\CCc3ccccc3C2=O)cc1	-15%	13%
CCOC(=O)c1ccc(OC(=O)c2cn(-c3cccc(OC)c3)c(=O)c3ccccc23)cc1	-21%	0%
Cc1ccc(SCC(=O)Nc2ccc3oc(-c4ccc(F)cc4)nc3c2)cc1	4%	110%[activator]
CCC(Sc1nc2ccncc2[nH]1)C(=O)Nc1cc(Cl)ccc1C (configuration not stated)	13%&34%	4%&-24%

Screening data from PubChem.

A portion of the library; count on the stated rates, not on these rows.
